UCH37 inh = blocks the human deubiquitinase UCH37. 330,000 tested, 0.33% active. Q9Y5K5. inhibition, % (test concentration not listed). purified proteasome/UCH37, Ub-AMC cleavage fluorescence;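 active = mean of two replicates above 20%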;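 note: 0% = compound-free wells with enzyme and 100% = wells lacking proteasome; stock transfer was 100 nL into about 20 µL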
Target sequence (Q9Y5K5 whole entry, looked up): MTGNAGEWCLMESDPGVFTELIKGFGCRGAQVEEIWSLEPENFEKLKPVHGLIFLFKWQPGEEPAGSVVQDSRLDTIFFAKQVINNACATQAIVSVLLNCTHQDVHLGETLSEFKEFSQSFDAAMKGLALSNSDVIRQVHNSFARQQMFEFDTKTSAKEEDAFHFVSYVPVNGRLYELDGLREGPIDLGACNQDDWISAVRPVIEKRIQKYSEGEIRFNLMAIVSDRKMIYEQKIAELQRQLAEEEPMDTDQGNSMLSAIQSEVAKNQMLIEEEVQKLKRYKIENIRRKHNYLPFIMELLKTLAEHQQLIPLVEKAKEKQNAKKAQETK
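Material: human UCH37 enzyme supplied as purified proteasome complex. Measure: % inhibition of Ub-AMC cleavage fluorescence. Medium: pH 7.4 Tris-HCl (50 mM) with ovalbumin, ATP-MgCl2, DTT. Times: 30 min preincubation with enzyme, 25 min cleavage at room temperature. Detection: AMC fluorescence intensity at 355/460 nm.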
Ecoli growth = E. coli growth inhibition. Escherichia coli growth, OD600, 23 h; active compounds read low. OD600 absorbance (concentration not given with the values). 330,000 tested, 0.21% active;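 active = OD600 absorbance below the run mean of sample wells minus 3.6 SD, in any replicate, cut at about 0.56 in these data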;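 note: stock transfer was 300 nL into about 60 µL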
HNF4A DNA FP = change in binding of human HNF4 alpha to DNA; P41235; activity change, % at 10 µM; HNF4a-FITC DNA binding, fluorescence polarization, 1 h; 360,000 tested, 0.3% active; in the data active = activity change above about 30%, passing the limit was not always enough;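 note: controls were the assay level and a saturating level of protein; the project sought stronger binding though the title names inhibitors; some compounds called inactive have numbers as strong as hits; positive values seem to mean higher polarization but the record does not say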
Vif TR-FRET = HIV-1 Vif–A3G interaction blockers – biochemical, TR-FRET, GST-Vif 1-94, biotin-A3G peptide, dose response retest, primary screen (AID 1117319); TR-FRET GST-Vif / biotin-A3G peptide binding; higher % means a stronger effect; test concentration not given here; strong numbers were not always called active; inhibition, %, or IC50 in µM where a hit was titrated; 260,000 tested, 0.57% active;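 active = above the screen mean plus three standard deviations and confirmed in dose response; inconclusive = results disagree or hit not tested in dose response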;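 note: Vif residues 1-94 fused to GST binding biotinylated APOBEC3G peptide 110-148; 0% = full assay without inhibitor and 100% = GST in place of GST-Vif; retest series ran down from 100 µM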
RanGTP-Impb inh = disruptors of Ran-importin-beta complex formation – biochemical, FRET, CFP-Ran, YFP-importin-beta, homogeneous, primary screen; inhibition, % (concentration not given with the values); 300,000 tested, 1.1% active; AID 2216; cell-free CFP-Ran/YFP-importin-beta FRET ratio;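 active = most replicates above 15%; inconclusive = exactly half above 15%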;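 note: 0% = DMSO wells and 100% = Ran loaded with GDP instead of GTP; wells of about 40 µL received 100 nL stock; the first replicate is given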
MLL AF4-AF9 inh = blocks AF4 peptide binding to human AF9 | AID 651704 | inhibition, % at 10 µM | P42568 | AlphaScreen, biotin-AF4 peptide binding to FLAG-AF9 | 350,000 tested, 0.47% active;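 active = every replicate reaching a set inhibition limit, whatever the replicate mean, cut at about 25% in these data; inconclusive = mean inhibition reaches that limit but some replicates miss it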;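 note: 0% = plate neutral control median and 100% = total signal loss; the record names both 10 and 1 µM as test concentration; the first replicate is given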
Target sequence (P42568 whole entry, looked up): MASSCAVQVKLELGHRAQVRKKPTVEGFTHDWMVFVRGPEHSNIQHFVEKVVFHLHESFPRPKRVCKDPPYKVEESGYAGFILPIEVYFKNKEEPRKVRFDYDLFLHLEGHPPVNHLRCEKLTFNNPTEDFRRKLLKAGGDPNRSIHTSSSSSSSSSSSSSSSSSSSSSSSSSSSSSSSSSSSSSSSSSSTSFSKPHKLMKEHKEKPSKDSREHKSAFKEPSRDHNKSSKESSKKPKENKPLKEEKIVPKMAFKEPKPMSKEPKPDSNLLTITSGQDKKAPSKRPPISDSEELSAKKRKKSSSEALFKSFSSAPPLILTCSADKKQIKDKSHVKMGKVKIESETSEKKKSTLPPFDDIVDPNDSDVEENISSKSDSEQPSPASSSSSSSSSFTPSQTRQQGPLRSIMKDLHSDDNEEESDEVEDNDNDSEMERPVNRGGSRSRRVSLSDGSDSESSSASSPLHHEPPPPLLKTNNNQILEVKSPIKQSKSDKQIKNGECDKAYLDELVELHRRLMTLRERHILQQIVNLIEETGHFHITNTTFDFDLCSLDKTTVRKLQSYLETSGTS
FGF22 binding = FGF22 (human) thermal shift binding. AID 651658. Q9HCT0. calls only at 9.99 µM. recombinant FGF22 thermal shift, SYPRO orange fluorescence; percent of sucrose octasulfate shift, DMSO zero. 340,000 tested, 1.5% active;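 active = melting point raised past a set limit in the mean and every replicate; inconclusive = no clear call; three in four hits are not shown here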
Target sequence (Q9HCT0 whole entry, looked up): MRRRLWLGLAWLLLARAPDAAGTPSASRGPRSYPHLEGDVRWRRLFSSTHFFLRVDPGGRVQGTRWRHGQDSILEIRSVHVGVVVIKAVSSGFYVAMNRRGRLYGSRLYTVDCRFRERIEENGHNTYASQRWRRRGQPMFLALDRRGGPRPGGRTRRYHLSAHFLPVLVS
* = called active by the depositor; i = inactive; u = inconclusive; x = no result given.

cpd	smiles	UCH37 inh	Ecoli growth	HNF4A DNA FP	Vif TR-FRET	RanGTP-Impb inh	MLL AF4-AF9 inh	FGF22 binding
1	CC(C)[C@H](CN(N=O)[C@@H](Cc1ccccc1)CN(C)N=O)N(CCc1ccccc1)N=O	3.7	x	1.6	21%	u	2.8	i
2	CCOC(=O)[C@H]1[C@H]2COc3ccc(Br)cc3[C@@H]2N2C(=O)c3cc(OC)c(OC)cc3NC(=O)[C@@]12C	-0.7	x	-8.2	x	x	7.3	i
3	CCOC(=O)c1ccc(NC(=O)C2C3CCCCC32)cc1 (stereo unspecified)	1.1	0.66	-7.0	x	-0.8	-1.8	i
4	Cc1ccc(S(=O)(=O)[N-]c2nc3ccccc3nc2-n2cc[n+](CCC(C)C)c2)cc1	-83	0.67	-2.6	-5%	u	x	x
5	N#CCCN1CCN(S(=O)(=O)c2ccc(C3CCCCC3)cc2)CC1	2.9	0.67	7.9	x	x	1.7	i
6	Cc1cc(NC(=O)c2ccc([N+](=O)[O-])cc2)n(C)n1	2.5	0.74	-1.6	-3%	-1.3	1.4	i
7	COc1ccccc1C(=O)N(Cc1cccs1)C1CCS(=O)(=O)C1 (stereo unspecified)	0.2	0.72	0.3	u	2.5	x	x
8	C/C(CC(=O)Nc1ccc(Cl)c(Cl)c1)=N\NC(N)=S	x	x	-1.4	-1%	6.6	x	x
9	O=C(CN1CCc2ccccc21)NCc1ccccc1Cl	2.5	0.71	0.3	-11%	u	x	x
10	O=C1NC[C@@H](CCCCN2C[C@H](Cc3ccc(O)cc3)N(CCc3ccc(O)cc3)C(=O)C2=O)N(CCc2ccccc2)C1=O	x	x	-4.5	x	x	4.8	i
11	CNC(=O)CCc1[nH]c2ccccc2c1Sc1ccccc1	3.7	0.69	1.7	x	0.1	-5.6	i
12	Cc1ccc(CN(C)C(=O)CCc2nc3sc4c(c3c(=O)[nH]2)CCCC4)o1	2.6	0.71	9.5	x	8.3	-2.2	i
13	COc1cccc(OCC(=O)NCCS(=O)(=O)N2CCN(c3ccccc3)CC2)c1	x	x	3.8	x	x	0.1	i
14	Cn1c(-c2ccc3nc(N)sc3c2)nc2cc(N)ccc21	-107	0.67	1.5	7%	1.9	x	x
15	O=c1c2ccccc2c2ccccc2c(=O)n1CC1CCCO1 (stereo unspecified)	-0.8	0.8	4.4	-4%	2.6	x	x
16	COC(=O)c1cc(=O)nc2sc3cc(OC)ccc3n12	-159	0.71	-0.6	10%	-2.5	x	x
17	COCC(=O)Nc1nnc(-c2ccc(C(C)(C)C)cc2)s1	1.4	0.69	1.8	x	4.9	5.8	i
18	CCCSc1nnc2n(-c3ccccc3OC)c(=O)c3c4c(sc3n12)CCC4	-2.9	0.77	2.9	9%	u	x	x
19	COc1cc(C(CC(=O)N2CCCC2)c2c(OC)cc(OC)c3ccc(=O)oc23)cc(OC)c1OC (stereo unspecified)	-2.9	0.69	-27	x	0.9	3.1	i
20	C=CCOC(=O)COc1ccc2c3c(c(=O)oc2c1)CCCC3	x	x	1.6	14%	x	-1.3	i
21	COc1ccc(/C=C(\NC(=O)c2ccccc2)C(=O)NCc2cccnc2)cc1	5.0	0.69	1.1	x	-3.9	1.0	i
22	CC(C)[C@H](NC(=O)c1ccccc1)C(=O)OCc1nc2scc(-c3ccccc3)c2c(=O)[nH]1	1.4	0.71	2.5	-1%	-2.3	x	x
23	COc1ccc(NC(=O)C2(C)Cc3c(-c4cccc(NC(C)=O)c4)ccnc3O2)cc1 (stereo unspecified)	x	x	3.3	x	x	-0.7	i
24	C=C(C)C(=O)N1CC2(CC(c3cccc(NC(=O)CC(c4ccccc4)c4ccccc4)c3)=NO2)C[C@H]1C(N)=O (stereo partly specified)	-1.1	x	3.0	x	-0.1	x	i
25	CCC(=O)Oc1ccc(C(CC)C(CC)c2ccc(OC(=O)CC)cc2)cc1 (stereo unspecified)	-1.3	x	-3.5	-10%	1.2	0.5	i
26	CCO[C@H]1OC(C(=O)O)=C[C@@H](C(C)(C)C)[C@@H]1CCCO	5.6	x	-2.9	x	5.4	-1.5	i
27	COc1ccc(N2CCCC2)c(NC(=O)COc2ccccc2)c1	2.0	0.71	-2.1	x	4.2	4.8	i
28	COc1ccc(OC)c(S(=O)(=O)N2CCC(C(=O)N(C)Cc3ccccc3)CC2)c1	-3.9	0.68	-1.3	15%	-0.3	-4.7	i
29	CCc1ccc(N(CC(=O)NC2CCCCC2)S(=O)(=O)c2c(C)noc2C)cc1	4.4	0.7	1.8	20%	2.2	-0.7	i
30	COc1ccc(/C=C/C(=O)NC(=S)NNC(=O)Cc2cccs2)cc1OC	2.7	0.77	-0.7	10%	6.0	x	x

Complete entries, quoted from the list. Order of screens: UCH37 inh | Ecoli growth | HNF4A DNA FP | Vif TR-FRET | RanGTP-Impb inh | MLL AF4-AF9 inh | FGF22 binding
Profile of CCCSc1nnc2n(-c3ccccc3OC)c(=O)c3c4c(sc3n12)CCC4 = -2.9 | 0.77 | 2.9 | 9% | u | x | x
Profile of COc1ccc(N2CCCC2)c(NC(=O)COc2ccccc2)c1 = 2.0 | 0.71 | -2.1 | x | 4.2 | 4.8 | i

Further entries.
cpd	smiles	UCH37 inh	Ecoli growth	HNF4A DNA FP	Vif TR-FRET	RanGTP-Impb inh	MLL AF4-AF9 inh	FGF22 binding
31	COc1ccc(-c2ccnc(-c3ccc(OCCCF)cc3)n2)cc1	1.9	0.69	0.7	-1%	-0.4	x	x
32	Cc1nc2ccc(NC(=O)C3COc4ccccc4O3)cc2s1 (stereo unspecified)	-0.2	0.68	-0.6	-5%	3.0	-12	i
33	COc1ccc(S(=O)(=O)N2CCCC(C(=O)NCc3ccccn3)C2)cc1 (stereo unspecified)	0.9	0.77	2.1	u	0.1	x	x
34	COc1ccc(C(C)=O)cc1CC(=O)NC1CCCCCC1	0.7	0.7	-1.5	x	0.8	4.1	i
35	COc1ccc(CN2CC(=O)N(c3ccc(C)cc3C)C2=S)cc1OC	3.4	0.73	-1.4	x	-1.8	1.8	i
36	CCCCOC(=O)Cn1c(=O)n(CC(=O)OCCCC)c2cc(C)ccc21	4.3	0.73	0.7	1%	5.5	x	x
37	COc1ccccc1Nc1nc(-c2c(C)nc3ncccn23)cs1	2.2	0.7	-0.5	14%	2.0	12	i
38	COc1ccccc1C1=NN(C2=NN=C(N)Cc3ncnn32)C(O)(C(F)(F)F)C1 (stereo unspecified)	-37	0.65	-0.8	x	1.1	-1.6	i
39	CCN(C[C@H]1N[C@@](Cc2ccccc2)(C(=O)OC)[C@H]2C(=O)N(Cc3ccccc3)C(=O)[C@@H]12)C(=O)COC	5.0	0.7	0.3	-5%	x	-3.8	i
40	Oc1ccc(N=Nc2n[nH]c(-c3ccc(Br)cc3)n2)cc1	6.0	0.68	0.9	x	-2.9	-2.4	i
41	CC(=O)Nc1ccc(-c2ccnc3c2CC(C)(C(=O)Nc2cccc(Oc4ccccc4)c2)O3)cc1 (stereo unspecified)	x	x	-0.9	x	x	-2.6	i
42	CCOC(=O)N1CCC(=NNC(N)=O)C1	x	x	0.5	-3%	x	-2.2	i
43	N#Cc1cc(N2CCOCC2)nc2ccccc12	-26	0.68	-0.9	25%	u	-9.1	i
44	CCC1Nc2ncnc(N3CCN(c4ccccc4)CC3)c2N(Cc2ccc(Br)cc2)C1=O (stereo unspecified)	-2.1	x	5.6	x	u	-1.4	i
45	CCN(C(=O)CN1CCN(c2ccccc2F)CC1)c1c(N)n(Cc2ccccc2)c(=O)[nH]c1=O	1.6	0.68	4.4	-2%	0.9	-1.1	i
46	CC12CCC(=O)N1C(C(=O)Nc1nccs1)CS2 (stereo unspecified)	4.8	0.68	1.2	1%	x	-5.8	i
47	O=C(CNC(=O)c1ccccc1)OC(C(=O)O)c1ccc(F)cc1 (stereo unspecified)	x	x	0.5	10%	x	2.3	i
48	CC[C@H]1c2[nH]c3ccccc3c2C[C@@H]2C(=O)N(c3ccc(F)cc3)C(=O)N21	1.6	0.75	0.8	x	1.1	-2.1	i
49	Cc1cc(C)c(NC(=O)CSc2nnc(CNC(=O)c3ccco3)o2)c(C)c1	-0.5	0.6	3.8	x	2.0	-4.0	i
50	C#CCN(C[C@@H]1[C@@H](OC(=O)NC2CC2)[C@@H](OC(=O)NC2CC2)Cn2c(=O)n(CCCCCC)c(=O)n21)S(=O)(=O)c1ccc(C)cc1	x	x	-0.1	0%	x	-1.1	i
51	Cc1nnc(SCC(=O)N2CCN(Cc3ccccc3)CC2)s1	2.4	0.7	3.0	-1%	1.5	-0.6	i
52	COc1cccc(NC(=O)CNC(=O)c2ccc(OC)c(OC)c2)c1	1.7	0.61	-1.8	3%	-6.9	-8.8	i
53	CC1=NN(c2ccccc2)C(=O)/C1=C\c1ccc(Oc2ccc([N+](=O)[O-])cc2[N+](=O)[O-])cc1	6.5	x	-2.3	x	4.8	5.8	x
54	O=C(O)C1C=CCC(C(=O)O)C1 (stereo unspecified)	x	x	2.1	4%	x	-7.5	i
55	CC1(C(=O)Nc2cccc3cccnc23)CCN1C(=O)Cc1ccc(Cl)cc1Cl (stereo unspecified)	x	x	1.0	x	x	-1.3	i
56	C/C(=N\NC(=O)C1CC1)c1ccc(C)cc1C	x	x	-4.5	x	-2.5	4.8	i
57	CCc1nc2c(OCCC3CCCCC3)cccn2c1N(C)C(=O)c1ccc(OC)cc1	x	x	1.2	x	x	4.5	i
58	Nc1nc2n(n1)C(c1ccccc1Cl)CC(c1ccc(F)cc1)N2 (stereo unspecified)	-4.6	0.72	2.2	3%	-0.2	4.5	x
59	Cc1ccc(/C=C/C(=O)Nc2nc3ccccc3[nH]2)cc1	-14	0.71	-0.1	x	0.2	x	x
60	Cc1ccc(NC(=O)C2CCN(C(=O)NC3CCCCC3)CC2)cc1	3.2	0.75	0.5	0%	0.2	x	x

cpd	smiles	UCH37 inh	Ecoli growth	HNF4A DNA FP	Vif TR-FRET	RanGTP-Impb inh	MLL AF4-AF9 inh	FGF22 binding
61	O=C(Nc1nnc(-c2cccc(F)c2)s1)Nc1ccccc1F	0.5	0.71	-0.5	-4%	-1.2	-5.5	i
62	COC(=O)CSc1nnc(SCc2ccc(Cl)cc2)s1	2.5	0.67	-3.2	15%	-1.7	x	x
63	O=C(NC1CC1)C1CCN(C2CCN(C(=O)c3ccc4cccc(F)c4n3)CC2)CC1	2.9	0.69	-7.3	-1%	6.9	-11	i
64	Cc1ccc(Nc2nc3ccccc3n3nnnc23)cc1	-12	0.66	-1.1	7%	0.1	-23	i
65	CCCc1nc(SCC(=O)Nc2nnc(SCC)s2)c2c(=O)n(C)c(=O)n(C)c2n1	-0.1	0.78	8.9	4%	4.8	1.2	i
66	CCC(C)(C)n1nnnc1C(c1ccncc1)N1CCC(Cc2ccccc2)CC1 (stereo unspecified)	4.2	0.7	1.8	24%	-2.3	x	x
67	CC[C@@H]1C/C=C\Cc2ccccc2[C@H](C(=O)C[C@@H](O)CC(C)=O)OC1=O	x	x	0.9	x	x	-0.3	i
68	Cc1ccc(NC(=O)Nc2cccc([N+](=O)[O-])c2)cc1F	3.6	0.48*	-2.6	9%	-1.5	-3.3	i
69	CC(=O)c1cccc(NC(=O)c2ccc(S(=O)(=O)N3CC(C)OC(C)C3)cc2)c1 (stereo unspecified)	0.1	0.72	-4.4	x	x	-1.5	i
70	COc1ccc(N2C(=O)C3C4C=CC(C4)C3C2=O)nn1 (stereo unspecified)	2.2	0.7	1.5	1%	-2.8	x	x
71	C=CCn1c(SCC(=O)Nc2c(C)n(C)n(-c3ccccc3)c2=O)nc2sc(C)c(-c3ccccc3)c2c1=O	1.8	0.76	1.7	-4%	-2.2	x	x
72	O=c1cc(CSc2nnc(-c3ccco3)o2)c2ccccc2[nH]1	6.5	0.71	2.1	-5%	5.4	x	x
73	Cc1cc(=O)oc2cc(OCC(=O)N3CCN(c4ccc(F)cc4)CC3)ccc12	-0.8	0.69	0.1	x	4.1	-1.5	i

These rows are one share of the data; count on the stated rates, not on these rows.
